Compound activity as filed in PubChem.
RE007 growth inh = less growth of the S. pombe RE007 Vpr strain | S. pombe RE007 Vpr strain, BacTiter-Glo ATP luminescence, 24 h; control for the full effect not named in the record | Potency, µM (series often up to 92.2 µM), without a hit: at the top dose activity change, negative = less growth | 360,000 tested, 0.21% active | AID 651644; active = well fitted falling curve with a large enough effect; inconclusive = small, poorly fitted or top-dose-only effect; inactive = no such curve, though single readings can be large or run the other way;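 also: % is scaled to controls: 0 for no effect and ±100 for the full control effect; nearly all actives have a fitted effect of over 50% in size; the assay follows cell death caused by Vpr and the record does not say whether a fall means rescue or toxicity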
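Fission yeast strain RE007, carrying one chromosomally integrated HIV-1 vpr copy, was seeded at OD 0.01 in PMG+AL medium with 23 nL pinned compound. After 24 h at 30 °C and 99% humidity, viability was read by BacTiter-Glo luminescence.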
SARS PLP yeast = inhibitors of SARS-CoV papain-like protease in yeast; S. cerevisiae expressing SARS-CoV PLpro, growth rescue; control for the full effect not named in the record; Potency, µM (titrated, usually from 32.9 µM), for the others: at the highest dose activity, positive = growth rescue; 330,000 tested, 0.19% active; active means well fitted rising curve with a large enough effect; inconclusive means small, poorly fitted or top-dose-only effect; inactive means no such curve, though single readings can be large or run the other way; also: 0% is about no effect; nearly all actives have a fitted effect of over 55% in size; growth read by luminescence after 48 h
StopGo reporter = FMDV 2A StopGo reporter, luciferase signal; human cells with a luciferase reporter of 2A StopGo recoding; control for the full effect not named in the record; Potency, µM (titrated, usually from 57.9 µM), inactives show at the top dose signal change, negative = less light; 410,000 tested, 1.2% active; AID 1159524; active = well fitted falling curve with a large enough effect; inconclusive = small, poorly fitted or top-dose-only effect; inactive = no such curve, though single readings can be large or run the other way; tested in HEK293T cells; also: % is scaled to controls: 0 for no effect and ±100 for the full control effect; nearly all actives have a fitted effect of over 45% in size; luciferase light after 4 h
* hit, by the source's call; ? = inconclusive; [ ] = remark or other dose. Potency is read from the fitted curve at half-maximal effect.

SMILES	RE007 growth inh	SARS PLP yeast	StopGo reporter
O=C(O)Cn1cc(/C=C2/NC(=O)N(c3ccc(Cl)cc3)C2=O)c2ccccc21	-8.3%	3.0%	-18.3%
Nc1sc(-c2ccccc2)c(Cc2ccccc2)c1C(=O)O	-2.8%	0.6%	-12.8%
CCn1nc(C(=O)NNC(=O)c2ccccc2)c2ccccc2c1=O	-3.4%	-12.7%	21.4%
O=C(c1cc(Br)c(Br)s1)N1CCc2ccccc2C1	-27.0%	-12.6%	25.5%
CCCCCCSc1ccc([C@@H]2[C@H]3C(=O)N(C)C(=O)[C@H]3[C@]3(C(=O)OC)CCCCN23)cc1OC	-6.2%	-2.0%	-18.7%
O=C(COC(=O)Cc1ccc(Br)cc1)Nc1ccc(N2CCOCC2)cc1	-6.5%	-2.0%	-14.4%
COc1ccccc1CC(=O)Nc1cc(S(=O)(=O)N2CCOCC2)ccc1N1CCOCC1	-12.9%	-0.6%	-11.9%
COc1ccc(Nc2nnc(SCC(=O)NC3CC3)s2)cc1	1.0%	-3.2%	29.3%
CCCCNC(=O)C1CC(=O)N(CCc2ccccc2)C1 (stereo not drawn)	7.0%	-1.1%	-6.7%
CCC(C)Sc1cccc(-c2nc3ccccn3c2NCc2ccccc2)c1 (stereo not drawn)	-23.3%	-2.0%	?
CCCCn1nc(C(=O)Nc2ccc3c(c2)OCCO3)c2ccccc2c1=O	-4.4%	-9.5%	-1.7%
Cc1ccc(NC(=O)CSc2nc3[nH]c(=O)cc(O)c3s2)c(Br)c1	2.6%	1.1%	-11.4%
COc1ccc2c(c1)OC[C@H]1[C@H]2N2C(=O)c3cc(OC)c(OC)cc3NC(=O)[C@@]2(C)[C@H]1c1ccccc1	-1.3%	2.5%	0.0%
COc1ccc(S(=O)(=O)N2CCCCC2)cc1NC(=O)C1CC(=O)N(Cc2ccccc2)C1 (stereo not drawn)	3.2%	3.6%	-6.2%
CC(=O)c1ccc(OC(C)C(=O)Nc2cccc(S(=O)(=O)NCc3ccco3)c2)cc1 (stereo not drawn)	5.7%	1.4%	50.5%[activator]
Cc1ccc(C)c(OCCC(=O)OCC(=O)NNC(=O)c2ccccc2)c1	-0.4%	2.1%	-10.2%
COc1ccc(C(=O)Nc2ccc(NC(C)=O)cc2)cc1S(=O)(=O)N1CCCCC1C (stereo not drawn)	11.3%	-0.9%	-3.8%
C[C@H]1COC(=O)[C@H](Cc2ccc(F)cc2)C/C=C\C[C@@H](CC(=O)N(CCO)Cc2ccccc2)C(=O)N1	5.1%	0.1%	-18.9%
Cc1ccc(S(=O)(=O)N2[C@@H](c3ccc4c(c3)OCO4)C(C(=O)O)=C[C@H]2C(C)(C)C)cc1	7.5%	2.8%	-9.9%
CCN(C(=O)COC(=O)CCC(=O)c1ccccc1)c1c(N)n(Cc2ccccc2)c(=O)[nH]c1=O	0.0%	-7.8%	-6.9%

Molecules shown so far that have a thiophene ring, fused or not, in the order listed:
SMILES	RE007 growth inh	SARS PLP yeast	StopGo reporter
Nc1sc(-c2ccccc2)c(Cc2ccccc2)c1C(=O)O	-2.8%	0.6%	-12.8%
O=C(c1cc(Br)c(Br)s1)N1CCc2ccccc2C1	-27.0%	-12.6%	25.5%

Back to the main list with the 4 entries that preceded the break.
SMILES	RE007 growth inh	SARS PLP yeast	StopGo reporter
COc1ccc(C(=O)Nc2ccc(NC(C)=O)cc2)cc1S(=O)(=O)N1CCCCC1C (stereo not drawn)	11.3%	-0.9%	-3.8%
C[C@H]1COC(=O)[C@H](Cc2ccc(F)cc2)C/C=C\C[C@@H](CC(=O)N(CCO)Cc2ccccc2)C(=O)N1	5.1%	0.1%	-18.9%
Cc1ccc(S(=O)(=O)N2[C@@H](c3ccc4c(c3)OCO4)C(C(=O)O)=C[C@H]2C(C)(C)C)cc1	7.5%	2.8%	-9.9%
CCN(C(=O)COC(=O)CCC(=O)c1ccccc1)c1c(N)n(Cc2ccccc2)c(=O)[nH]c1=O	0.0%	-7.8%	-6.9%
C=CC[C@H](CC(=O)NCCO)C(=O)N[C@@H](C)COC(=O)[C@H](CC=C)CC(=O)OC(C)(C)C	-15.3%	-3.2%	-7.8%
CCN(C[C@H]1N[C@@](C)(C(=O)OC)[C@H]2C(=O)N(C)C(=O)[C@@H]12)S(=O)(=O)c1ccccc1	-18.6%	-0.6%	-17.0%
CCOC(=O)c1[nH]cnc1C(=O)N[C@@H](C)c1ccccc1	-6.1%	0.3%	13.4%
Cc1ccccc1OCCn1cc(C(=S)N2CCN(C)CC2)c2ccccc21	-11.0%	5.5%	-9.0%
C=CCNC(=O)NC(=O)CSc1nnc(C(F)(F)F)n1C	1.0%	4.4%	0.9%
CCC(C)(C)C1CCC2(CC1)NC(=O)N(CC(=O)N1CCN(C(=O)c3ccco3)CC1)C2=O (stereo not drawn)	-18.0%	-4.5%[6.58 µM]	0.0%
O=C(Cc1cccs1)Nc1ccc(F)c(S(=O)(=O)N2CCOCC2)c1	4.2%	2.1%	1.6%
COC(=O)c1ccccc1S(=O)(=O)N1CCC(C(=O)NC2CCCCC2C)CC1 (stereo not drawn)	-13.5%	-1.4%	-14.9%
COc1ccc(NC(=O)CN(C)C(=O)CSc2ccc(Br)cc2)cc1	-1.5%	1.5%	-8.3%
COc1cccc2sc3cc(NCc4ccc(C)o4)ccc3c(=O)c12	-17.2%	2.0%	22.6%
COc1ccc(COC(=O)C2CC(=O)N(Cc3ccccc3)C2)cc1 (stereo not drawn)	-9.9%	-2.0%	0.9%
CC1CCCC(NC(=O)CSc2cccc[n+]2[O-])C1C (stereo not drawn)	5.6%	-1.6%	-17.2%
NC(=O)NC(=O)C(c1ccccc1)N1CCN(S(=O)(=O)c2ccc(Br)s2)CC1 (stereo not drawn)	-9.0%	-0.4%	-16.2%
O=C(NCC1CCCO1)c1cc2c(s1)CCCC2 (stereo not drawn)	-14.7%	3.7%	61.3%[activator]
CCN1CCN(c2cc(C)c3cc(NC(=S)N4CCC5(CC4)OCCO5)ccc3n2)CC1	-11.0%	3.6%	-1.1%
CSCCC(NC(=O)c1ccccc1)C(=O)N1CCCCCCC1 (stereo not drawn)	-17.2%	-6.8%	12.8%
CCOc1ccc(S(=O)(=O)N(CC)CC(=O)NC2CCS(=O)(=O)C2)cc1 (stereo not drawn)	8.3%	-1.2%	-8.4%
CC[C@]12c3[nH]c4cc(CCC(=O)N(C)C)ccc4c3CCN1C(=O)[C@@H](CC(=O)NC(C)(C)C)C[C@@H]2C(=O)N1CCN(C(=O)C2CC2)CC1	2.4%	6.2%	0.1%
COc1ccc([C@H]2CC(=O)C=C(c3cccc(OCc4ccccc4)c3)C2)cc1	-3.1%	2.3%	-11.8%
CN(Cc1ccccc1Br)C(=O)CN1C(=O)NC2(CCCCCC2)C1=O	-6.3%	-6.5%	-11.1%

Rewritten with two lines to a compound: four of the compounds above.
Under each structure – RE007 growth inh | SARS PLP yeast | StopGo reporter
CC1CCCC(NC(=O)CSc2cccc[n+]2[O-])C1C (stereo not drawn)
    5.6% | -1.6% | -17.2%
COc1cccc2sc3cc(NCc4ccc(C)o4)ccc3c(=O)c12
    -17.2% | 2.0% | 22.6%
Nc1sc(-c2ccccc2)c(Cc2ccccc2)c1C(=O)O
    -2.8% | 0.6% | -12.8%
C[C@H]1COC(=O)[C@H](Cc2ccc(F)cc2)C/C=C\C[C@@H](CC(=O)N(CCO)Cc2ccccc2)C(=O)N1
    5.1% | 0.1% | -18.9%

(listing goes on)
SMILES	RE007 growth inh	SARS PLP yeast	StopGo reporter
COc1ccc(CN(C)C(=O)c2cc(S(=O)(=O)NCc3ccccc3)ccc2C)c(OC)c1	0.9%	-1.6%	-42.7%
COc1ccc(-c2cc(=O)[nH]c3ccccc23)cc1	3.0%	-1.4%	-28.9%
CCOC(=O)c1c(C)oc(NC(=O)CCl)c1C(=O)OCC	-1.6%	?	-15.6%
CCCn1c(N)c(C(=O)CSc2nnc3n2CCCCC3)c(=O)[nH]c1=O	-3.0%	-16.4%	-5.9%
COc1ccc(NC(=O)C2CCC(C(C)(C)C)CC2)cc1S(=O)(=O)N1CCOCC1 (stereo not drawn)	10.1%	0.8%	?
COc1ccc(Cl)cc1NC(=O)C1(c2cccs2)CCOCC1	-4.0%	-0.2%	-19.6%
COCC(=O)N[C@@H]1c2cc(OC)c(OC)cc2C[C@H]1OCc1ccccc1	2.5%	-4.2%	0.0%
COc1ccc(OC)c(-c2csc(NC(=O)CSCC(=O)Nc3cc(C)on3)n2)c1	-14.4%	-3.1%	-7.4%
Cc1ccc(C)c(OCCC(=O)N2CCN(S(=O)(=O)c3ccc([N+](=O)[O-])cc3)CC2)c1	3.5%	1.2%[6.58 µM]	-15.0%
CCOC(=O)c1c(NC(=O)COC(=O)c2ccc(NC(=O)CC#N)cc2)sc(C(=O)NC)c1C	-6.4%	-2.8%	-11.9%
CN(C(=O)CSc1nnnn1-c1ccc(Cl)cc1)C1CCS(=O)(=O)C1 (stereo not drawn)	-0.5%	2.0%	5.6%
CCOC(=O)c1ccc(Oc2nc(OC)cc(OC)n2)cc1	8.8%	-2.2%	12.7%
COc1ccc(S(=O)(=O)N(C)C[C@H]2Oc3ccc(NC(=O)NC(C)C)cc3C(=O)N([C@H](C)CO)C[C@@H]2C)cc1	7.4%	-2.4%	-9.8%
COc1ccc([C@H]2CC(=O)C=C(c3cc(Cl)cc(Cl)c3)C2)cc1	-7.3%	-4.8%	-24.5%
C[C@H](CO)N1C[C@H](C)[C@@H](CN(C)C(=O)Nc2ccc3c(c2)OCO3)Oc2ccc(NC(=O)Nc3ccc(C(F)(F)F)cc3)cc2C1=O	13.3%	2.2%	-19.8%
O=C(Nc1cccnc1)c1cccc(S(=O)(=O)Nc2cccc(Cl)c2)c1	-0.1%	-8.6%	-13.8%
Cc1cccc(N2CCN(C(=O)c3ccc(CNc4c(N5CCC(C)CC5)c(=O)c4=O)cc3)CC2C)c1 (stereo not drawn)	8.1%	-0.3%	?
COc1ccccc1N(C)S(=O)(=O)c1ccc(C(=O)Nc2ccc(C(N)=O)cc2)cc1	-14.4%	2.2%	?
CNC[C@H]1Oc2ccc(NC(=O)Nc3ccc(OC)cc3)cc2C(=O)N([C@@H](C)CO)C[C@H]1C	2.6%	-5.4%	-13.2%
CCCCNC(=O)C(C)N(CCN(C)C)C(=O)CCCCCN1C(=O)NC(c2ccc(Cl)cc2)C(C(=O)OCc2ccccc2)=C1C (stereo not drawn)	18.6%	-14.3%	0.0%
O=c1ccc2cc3ccoc3c(O)c2o1	-4.0%	3.3%	-9.7%
Cc1c(C(=O)NCC2CCCO2)oc2ccccc12 (stereo not drawn)	-0.8%	-1.6%	77.2%[activator]
CC(=O)N1c2ccccc2[C@@H](C)[C@@H]1C	-9.3%	1.2%	-11.2%
COc1cc(CC(=O)Nc2ccc(S(=O)(=O)NC3=NCCCCC3)cc2)cc(OC)c1OC	-6.8%	0.4%	4.5%
O=C1NC(=S)N/C1=C\c1ccc(N2CCOCC2)cc1	3.3%	0.2%	36.9%[activator]
CC(=O)NC(=O)COC(=O)c1ccc2ncsc2c1	10.9%	4.0%	-7.5%
NS(=O)(=O)c1ccc(NC(=O)COC(=O)c2ccco2)cc1	-12.4%	-0.2%	-6.5%
Cc1ccc(C(=O)N/C(=C/c2cccc([N+](=O)[O-])c2)C(=O)NCC2CCCO2)cc1 (stereo not drawn)	11.8%	0.8%	-6.4%
CCOC(=O)c1nncc(-c2ccccc2)n1	-5.4%	-3.1%	1.8%
O=C(O)CC1C(=O)NCCN1Cc1cccs1 (stereo not drawn)	-9.0%	2.4%	9.2%
COCCCNC(=O)C[C@H]1C[C@H](C(=O)N2CCOCC2)[C@@]2(CCC3CCCC3)c3[nH]c4cc(CCC(=O)N(C)C)ccc4c3CCN2C1=O	-20.1%	-12.2%	26.1%
Cc1noc(C)c1CSCC(=O)N(C)CC(=O)Nc1ccccc1C(F)(F)F	11.0%	-2.2%	-19.8%

Profiles from above.
Cc1c(C(=O)NCC2CCCO2)oc2ccccc12 (stereo not drawn) is listed as RE007 growth inh = -0.8%; SARS PLP yeast = -1.6%; StopGo reporter = 77.2%[activator]
O=C1NC(=S)N/C1=C\c1ccc(N2CCOCC2)cc1 is listed as RE007 growth inh = 3.3%; SARS PLP yeast = 0.2%; StopGo reporter = 36.9%[activator]

These rows are one share of the data. The share of hits here may be higher or lower than overall.
